# HCMV UL50-53 inh: disrupts HCMV UL50-UL53 complex binding. HTRF UL50-UL53 interaction, normalized percent inhibition. inhibition, % (no concentration beside the values). hit rate 0.15% among 190,000. AID 1918969;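 active = both replicates at 50% or more, plus weaker picks with an unusually low signal ratio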;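 note: stock transfer was 100 nL into about 20 µL; 0% = negative control wells and 100% = wells with untagged competitor protein; inactives centre near -12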
# GIV Gai3 FP: inhibitors of GIV GBA-motif binding to rat Galpha-i3 | Galpha-i3/FITC-GIV peptide fluorescence polarization, 90 min; hits give low values; scaled: aluminum fluoride 0%, vehicle 100% | AID 1224905 | percent of control (FP), % (test concentration not listed) | P08753 | hit rate 0.42% among 210,000;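 active = replicate mean at 85% of control or lower, very high polarization wells dropped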;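 note: wells of about 15 µL received 100 nL stock; the first replicate is given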
# Target sequence (P08753 whole entry, looked up): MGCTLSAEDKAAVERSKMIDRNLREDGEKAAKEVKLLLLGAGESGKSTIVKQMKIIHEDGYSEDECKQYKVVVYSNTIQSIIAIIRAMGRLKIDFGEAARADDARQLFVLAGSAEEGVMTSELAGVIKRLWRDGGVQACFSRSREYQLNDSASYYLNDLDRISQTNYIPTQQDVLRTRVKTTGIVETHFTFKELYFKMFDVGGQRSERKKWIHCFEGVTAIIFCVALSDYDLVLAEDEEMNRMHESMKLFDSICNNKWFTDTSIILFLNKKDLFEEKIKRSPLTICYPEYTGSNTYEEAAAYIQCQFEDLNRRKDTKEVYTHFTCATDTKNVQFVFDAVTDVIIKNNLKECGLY
# Sa growth 42C: S. aureus growth inhibition. S. aureus RN4220 growth, OD600, 20 h, 42 °C; hits give low values. relative growth, % (no concentration beside the values). hit rate 0.53% among 170,000. AID 720641;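 active = growth at 42 °C up to 50% and 20 or more points under that at 30 °C, or under 10% at both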;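 note: 300 nL library stock went into each well; scaled to the means of positive and negative controls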
# Sa growth 42C second temp: also measured in Sa growth 42C; calls as there; relative growth, %; measured here: growth at 30 °C;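 optical density after 20 h as mean of two plates; 100% = untreated growth and lower means inhibition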
# Starred values were filed as active, the others as inactive; · = no result given; & = joins results of further samples.
SMILES,HCMV UL50-53 inh,GIV Gai3 FP,Sa growth 42C,Sa growth 42C second temp
O=C(CSc1cn(CCNC(=O)c2c(F)cccc2F)c2ccccc12)Nc1ccc(F)cc1,2,108,109,101
CC1SC(C)C(=O)N(CC(=O)Nc2ccc3c(c2)OCCO3)C1=O (centres undefined),-32,98,95,89
O=C(C1CCN(S(=O)(=O)c2cccc3nonc23)CC1)N1CCCC1,-110,108,95,89
CC(c1ccccc1)N1Cc2ccccc2C1 (centres undefined),-5,103,103,83
CC(=O)Nc1cccc(-c2nnc(SCc3cccc(Cl)c3)n2C)c1,-10,106,104,100
FC(F)n1c(=S)[nH]c2ccccc21,-9,·,142,93
COC(=O)c1ccc(NC(=O)CC2C(=O)N(c3cccc(OC)c3)C(=O)N2C(C)C)cc1 (centres undefined),·,107,92,94
Cc1cccc(-n2ncc(C(=O)N3CCN(C(=O)c4ccco4)CC3)c2C2CCN(C(=O)OC(C)(C)C)CC2)c1,·,104,83,95
O=C(Nc1cc(F)ccc1F)N1CCC(CN2CCOCC2)CC1,·,109,83,101
CCOC(=O)c1cccc(NC(=O)c2cn(-c3cccc(OC)c3)c(=O)c3ccccc23)c1,·,103,120,91
COc1ccc(OC)c(-c2csc(=Nc3cccnc3)n2Cc2ccco2)c1,-26,·,58,46
CN(CCc1ccccn1)C(=O)c1cccc(OC(F)F)c1,-21,·,78,88

# Four compounds picked at random from those above:
SMILES,HCMV UL50-53 inh,GIV Gai3 FP,Sa growth 42C,Sa growth 42C second temp
CN(CCc1ccccn1)C(=O)c1cccc(OC(F)F)c1,-21,·,78,88
O=C(Nc1cc(F)ccc1F)N1CCC(CN2CCOCC2)CC1,·,109,83,101
COC(=O)c1ccc(NC(=O)CC2C(=O)N(c3cccc(OC)c3)C(=O)N2C(C)C)cc1 (centres undefined),·,107,92,94
O=C(CSc1cn(CCNC(=O)c2c(F)cccc2F)c2ccccc12)Nc1ccc(F)cc1,2,108,109,101

# The list goes on:
SMILES,HCMV UL50-53 inh,GIV Gai3 FP,Sa growth 42C,Sa growth 42C second temp
Cc1cc(Nc2ccccc2)n(CCC#N)n1,-25,·,118,91
O=C(CC1=NS(=O)(=O)c2ccccc2N1)NCCc1c[nH]c2ccccc12,-12,100,91,74
Cc1ccc(-c2c(CN3CCN(c4cc(Cl)ccc4C)CC3)csc2C)cc1,·,107,107,90
CCOC(=O)c1cc(S(=O)(=O)N2CCN(c3ccc(C)cc3C)CC2)[nH]n1,·,106,108,82
CCOC(=O)c1nc(Nc2cc(Cl)ccc2C)c2ccccc2n1,1,105,·,·
NC(=O)Cn1c(CN2CCCC2c2ccc3c(c2)OCCCO3)nc2ccccc2c1=O (centres undefined),-37,·,93,83
CCCN(c1ccc(C(C)C)cc1)S(=O)(=O)c1ccc2c(c1)n(C)c(=O)c(=O)n2C,-8,105,107,91
Cc1ccc2nc(Nc3ccc(Cl)cc3)c(/C=N/O)c(=O)n2c1,-13,·,100,89
CC1=C(C(=O)OCCOc2ccccc2)C(c2cccc(Oc3ccccc3)c2)NC(=O)N1 (centres undefined),-4,108,·,·
CC1=C(C(=O)OC2CCCCC2)C(c2cc3c(cc2Br)OCO3)NC(=O)N1 (centres undefined),-8,102,·,·
COC(=O)c1cnn2c(=O)c3c(n(C)c12)CCN(Cc1ccccc1)C3,6,110,100,87
CCN(CC)S(=O)(=O)c1ccc2nc(NC(=O)c3cncc(Br)c3)sc2c1,·,103&101,66,75
CC(C)NC(=S)NNc1ccccc1C(F)(F)F,-15,·,75,68
Cc1cccc(C)c1Nc1c(-c2ccsc2)nc2sccn12,·,105,107,90
Cc1cc(C)c2sc(N3CCCC3)nc2c1,·,100,86,87
Cc1cc(Cl)ccc1OCCCC(=O)NN1CCOCC1,8,104,111,109
COc1cccc(I(OC(C)=O)OC(C)=O)c1,38,105,120,95
COc1ccccc1NC(=O)C(c1ccccc1)N1CCOCC1 (centres undefined),-24,103,106,103
Cc1ccc(NC(=O)CSc2nnc(COc3ccc(Cl)cc3)o2)cc1,-6,102,118,99
COc1ccccc1NC(=S)NC1CC2CCC1C2 (centres undefined),-18,103,95,86
CCOC(=O)C1C(=O)C=C(c2ccc(C)cc2)CC1c1ccc(CC)cc1 (centres undefined),·,101,98,89
O=C(NCC(c1cccnc1)N1CCc2ccccc21)c1ccc(F)c(F)c1 (centres undefined),2,108,96,86
COc1cc(C2CC(=O)c3cnc(N4CCN(CCO)CC4)nc3C2)cc(OC)c1OC (centres undefined),-13,103,98,89
On1c(-c2cccc(F)c2)nc2c1CCc1nonc1-2,-18,102,116,87
CCOc1ccccc1CNC(=O)CCCN1C(=O)c2cccnc2Oc2ccc(Cl)cc21,·,104,97,96
Cc1ccc(-c2cc3c(SCC(=O)Nc4cc(C)ccc4C)nccn3n2)cc1,-13,102,·,·
Cc1cc(C)cc(NC(=O)C2CCCN(c3ccc4cc(S(=O)(=O)N5CCCC5)ccc4n3)C2)c1 (centres undefined),-26,104,·,·
COc1cccc(NC(=O)C2CCN(c3ncccc3-n3c(C)ccc3C)CC2)c1,16,105,·,·
Cc1nn(-c2ccccc2)c2c1N(C(=O)CCC(=O)NC1CCCCCC1)CCS2,-23,102,101,82
CCOc1ccc(OCC)c(NC(=O)C2=C(C)C(=O)OC23CCN(C(C)C)CC3)c1,-33,111,·,·
Cc1oc(-c2ccccc2Cl)nc1CS(=O)CC(=O)NCc1ccccc1Cl (centres undefined),-36,108,99,87
Cc1ccccc1-c1nc(-c2ccc(NC(=O)c3cccnc3)cc2)no1,-3,·,93,90
CCC(=O)c1c(C)oc2ncnc(Nc3ccc(CCO)cc3)c12,-22,103,108,82
CCOC(=O)c1cnn(-c2ccc(OC)cc2)c1C1CCN(C(=O)OC(C)(C)C)CC1,-2,108,108,83
O=C(COCC(=O)N1CCCC1)N1CCCC1,-21,101,104,88
CCn1c(C)cc(/C=C2/NC(=O)N(c3ccccc3)C2=O)c1C,-25,108,62,82

# 2 entries from above in another layout:
CCOc1ccc(OCC)c(NC(=O)C2=C(C)C(=O)OC23CCN(C(C)C)CC3)c1
  HCMV UL50-53 inh: -33
  GIV Gai3 FP: 111
  Sa growth 42C: ·
  Sa growth 42C second temp: ·

Cc1oc(-c2ccccc2Cl)nc1CS(=O)CC(=O)NCc1ccccc1Cl (centres undefined)
  HCMV UL50-53 inh: -36
  GIV Gai3 FP: 108
  Sa growth 42C: 99
  Sa growth 42C second temp: 87

# Further structures.
SMILES,HCMV UL50-53 inh,GIV Gai3 FP,Sa growth 42C,Sa growth 42C second temp
CCOc1cc(CNCCSc2nnnn2-c2ccccc2)cc(Cl)c1OC,-4,107,59,71
Cc1nn(-c2ccccc2)c2nc(-c3ccccc3)cc(C(=O)N3CCOCC3)c12,-12,·,103,71
COc1ccc(CN(C(=O)Nc2ccccc2)C2CC2)cc1,-24,·,77,92
O=C(Nc1ccc2c(c1)OCO2)c1cc(-c2ccccc2)nc2ccccc12,-15,108,·,·
CCS(=O)(=O)NCC(c1ccc(N(C)C)cc1)N1CCc2ccccc21 (centres undefined),-5,103,100,94
Cc1cc(C)cc(NC(=O)c2ccc3nnc(C)n3c2)c1,-58,106,·,·
Cc1nc(SCC(=O)c2ccc(Br)cc2)c(C#N)c(C)c1C,2,105,·,·
CC(Oc1ccc(/C=C(/C#N)C(=O)N2CCOCC2)cc1)C(=O)O (centres undefined),-9,98,91,90
COc1ccc(Cl)cc1NC(=O)Cn1cnc2c1c(=O)n(C)c(=O)n2C,·,102,107,91
COc1ccccc1C(=O)Oc1c(Sc2ccccc2)c(C)nn1-c1ccccc1,-7,100,97,93
COc1ccccc1CC(=O)NCC1OCCc2ccccc21 (centres undefined),·,107,96,81
CCOc1ccc(OCC(=O)Nc2cc(C)nn2-c2nc(C)cc(=O)[nH]2)cc1,-16,97,·,·
Cc1cc(OCc2ccc(/C=C(/C#N)S(=O)(=O)c3ccccc3)o2)ccc1Cl,-7,105,113,97
CC1CC2c3cccc(C(=O)O)c3C(=O)N2c2ccc(F)cc21 (centres undefined),·,105,97,82
c1ccc(N2CCN(c3c4c(nc5ncnn35)CCC4)CC2)cc1,-33,102,101,88
Cc1cccc(CC(=O)NCCc2csc(-c3ccc(C(F)(F)F)cc3)n2)c1,·,97,101,88
C[N+]1(Cc2cn3ccccc3n2)CCOCC1,29,·,96,101
Cc1nc2nc(CN)nn2c(C)c1CCC(=O)NCC1CCN(Cc2ccc(F)cc2)CC1,4,107,114,92
Cn1c(=O)oc2cc(S(=O)(=O)N3CCC(C(=O)NCc4ccccc4)CC3)ccc21,-16,105,107,96
CCCCNC(=O)C(CC)Sc1nnc(-c2cccc(F)c2)c(-c2cccc(F)c2)n1 (centres undefined),·,102,88,89
CCCOCC(O)CN1CCCCC1 (centres undefined),-20,101,94,89
CCC(C)NC(=O)c1cc(-c2cccc(OC)c2)no1 (centres undefined),·,104,110,82
CCC(=O)Nc1ccc(CC)cc1-c1nc2ccccc2n(Cc2ccccc2)c1=O,-17,98,97,96
Cc1nn(-c2ccc(Br)cc2)c2nc(-c3ccccn3)cc(C(F)(F)F)c12,10,105,·,·
CCOC(=O)C(C)Nc1n[nH]c(=O)[nH]c1=O (centres undefined),-8,101,99,82
CC1CN(CCC(=O)Nc2ccc(S(N)(=O)=O)cc2)CC(C)O1 (centres undefined),-24,97,88,86
CC(Oc1ccc(Br)cc1)C(=O)NN (centres undefined),·,102,97,106
CC1SCC(=NOCc2ccccc2)CS1 (centres undefined),-24,107,91,86
C=C(C)CNC(=S)NN,-14,·,86,86
COC(=O)c1ccc2c(=O)[nH]c(COC(=O)c3cnc(C)cn3)nc2c1,-32,·,60,82
O=S(=O)(c1ccccc1)c1nnn2c1nc(N1CCCC1)c1sccc12,-1,104,94,93
Cc1nc2ccccc2c(C)c1C(=O)Nc1ccc(Cl)cc1,6,·,111,98
O=C(NCc1ccc(Cl)cc1)C1CCCN(c2nc3ccccc3n3cccc23)C1 (centres undefined),6,105,110,100
Cn1c(CNS(=O)(=O)c2ccc3c(c2)OCCO3)nnc1SCc1cccnc1,-24,102,90,88
CCc1cc(C(Nc2nc(C)cc(C)n2)c2ccc(OC)cc2)c(NC(=O)c2ccccc2)s1 (centres undefined),-18,108,·,·
CC(=O)Nc1ccc(S(=O)(=O)NCC2CCC(C(=O)NC(C)c3ccc4c(c3)OCCO4)CC2)cc1 (centres undefined),-21,102,124,94
CC(C)(C)c1ccc(-c2nc3ccccc3s2)cc1,-6,·,90,92
Cc1ccc2c(c1)c1nc3ccccc3nc1n2CC(=O)OC(C)C,7&1,109&106,98,104
C/S(=N\S(=O)(=O)c1cccc2nonc12)c1ccc(C(F)(F)F)cn1 (centres undefined),-134,106,90,82
Clc1ccc(-c2noc(COc3ccc4c(c3)OCO4)n2)cc1,-10,103,85,90
CC(=O)Nc1ccc(NC(=O)CCc2c(C)nn(-c3cc(N4CCCC4)ncn3)c2C)cc1,-10,99,·,·
CN(C)c1ccc(CNCc2ccco2)cc1,4,110,82,97
Cc1ccc2c(c1)cc(CN(Cc1ccc3c(c1)OCO3)S(=O)(=O)c1ccccc1)c1nnnn12,-19,104,126,85
Cc1csc2nc(COc3ccccc3NC(=O)c3ccc(C(C)(C)C)cc3)cc(=O)n12,-35,99,100,87
O=C(CCC(=O)N1CCc2ccccc2C1)c1ccccc1,-12,·,104,98
CCC(C)NC(=O)CSc1nc2cc3c(cc2c(=O)n1CCCCCC(=O)NCc1ccc2c(c1)OCO2)OCO3 (centres undefined),·,100,93,84
CCOc1ccc(N=c2scc(-c3ccc4c(c3)NC(=O)CO4)n2C2CC2)cc1,-6,·,85,101
O=C(Nc1ccc2c(c1)OCCO2)[C@@H](c1ccccc1)N1Cc2ccccc2C1=O,-2,108,94,97

# Results in HCMV UL50-53 inh and Sa growth 42C second temp, for some of the entries so far:
canonical_smiles | HCMV UL50-53 inh | Sa growth 42C second temp
C/S(=N\S(=O)(=O)c1cccc2nonc12)c1ccc(C(F)(F)F)cn1 (centres undefined) | -134 | 82
Clc1ccc(-c2noc(COc3ccc4c(c3)OCO4)n2)cc1 | -10 | 90
CC(=O)Nc1ccc(NC(=O)CCc2c(C)nn(-c3cc(N4CCCC4)ncn3)c2C)cc1 | -10 | ·
CN(C)c1ccc(CNCc2ccco2)cc1 | 4 | 97

# (continued)
SMILES,HCMV UL50-53 inh,GIV Gai3 FP,Sa growth 42C,Sa growth 42C second temp
Cc1ccc(-c2nc3c4ccccc4n(Cc4cccc(Cl)c4)c(=O)n3n2)cc1,·,105,113,96
OC1C(c2ccccc2)=NNC1c1ccccc1 (centres undefined),·,105,74,66
O=C(Cn1ncc2c(=O)oc3ccccc3c21)Nc1ccc(Oc2ccccc2)cc1,-2&-32,95&98,116,76
COc1cc(CCC(=O)NCc2ccc3c(c2)CCN3C(=O)c2ccccc2)cc(OC)c1OC,·,105,117,96
O=C(/C=C/c1ccccc1)Nc1cc(-c2nc3cc(Cl)ccc3o2)ccc1Cl,-40,112,96,85
COc1ccccc1CNc1ccc(-c2nc(-c3ccccc3C)no2)cc1[N+](=O)[O-],-20,101,96,82
N#Cc1ccc(N2CCCCC2)cc1,10,89,92,100
Clc1c(-c2nnc(-c3ccc(N4CCOCC4)cc3)o2)sc2ccccc12,-13,100,81,98
Nc1ccc(Sc2nnnn2-c2ccccc2)c(Cl)c1,4,109,104,105
O=C(NC1CC1)c1cc(-c2ccc(Cl)c(Cl)c2)nc2ccccc12,-13,106,·,·

# Among those listed so far, these contain a COOH group.
SMILES,HCMV UL50-53 inh,GIV Gai3 FP,Sa growth 42C,Sa growth 42C second temp
CC(Oc1ccc(/C=C(/C#N)C(=O)N2CCOCC2)cc1)C(=O)O (centres undefined),-9,98,91,90
CC1CC2c3cccc(C(=O)O)c3C(=O)N2c2ccc(F)cc21 (centres undefined),·,105,97,82

# Screening data (PubChem)
